Compound activity (PubChem)
Mtb H37Rv: M. tuberculosis H37Rv growth inhibitors, H37Rv strain (AID 1626); inhibition, % at 10 µM; hits with a dose series show IC50 in µM; 220,000 tested, 0.95% active; M. tuberculosis H37Rv growth inhibition; higher % means a stronger effect;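 active = confirmed in a dose series; inconclusive = inhibition above 80% but not taken into the dose series; inactive = below 80% or under 30% at every dose of the series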;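 note: bacteria incubated seven days before Alamar blue readout; 0% = bacteria only wells and 100% = bacteria with antibiotic wells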
YopH inh: YopH (Yersinia) phosphatase inhibition; fluorescence Ex485/Em525; inhibition, %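 (about 10 µM by stock and volumes)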; 140,000 tested, 0.16% active;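 active = inhibition of 50% or more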;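 note: controls were vehicle for no effect and minimum signal wells for full effect; inactives centre near -20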
RecA intein inh: blocks M. tuberculosis RecA intein splicing; cell-free RecA intein splicing, fluorescence; inhibition, %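 (about 9 µM by stock and volumes)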; 290,000 tested, 0.75% active; in the data active = inhibition above about 30%; inconclusive = no clear call, values can overlap the other calls;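 note: 0% = vehicle wells and 100% = reference inhibitor control wells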
Target sequence (P9WHJ3 whole entry, looked up): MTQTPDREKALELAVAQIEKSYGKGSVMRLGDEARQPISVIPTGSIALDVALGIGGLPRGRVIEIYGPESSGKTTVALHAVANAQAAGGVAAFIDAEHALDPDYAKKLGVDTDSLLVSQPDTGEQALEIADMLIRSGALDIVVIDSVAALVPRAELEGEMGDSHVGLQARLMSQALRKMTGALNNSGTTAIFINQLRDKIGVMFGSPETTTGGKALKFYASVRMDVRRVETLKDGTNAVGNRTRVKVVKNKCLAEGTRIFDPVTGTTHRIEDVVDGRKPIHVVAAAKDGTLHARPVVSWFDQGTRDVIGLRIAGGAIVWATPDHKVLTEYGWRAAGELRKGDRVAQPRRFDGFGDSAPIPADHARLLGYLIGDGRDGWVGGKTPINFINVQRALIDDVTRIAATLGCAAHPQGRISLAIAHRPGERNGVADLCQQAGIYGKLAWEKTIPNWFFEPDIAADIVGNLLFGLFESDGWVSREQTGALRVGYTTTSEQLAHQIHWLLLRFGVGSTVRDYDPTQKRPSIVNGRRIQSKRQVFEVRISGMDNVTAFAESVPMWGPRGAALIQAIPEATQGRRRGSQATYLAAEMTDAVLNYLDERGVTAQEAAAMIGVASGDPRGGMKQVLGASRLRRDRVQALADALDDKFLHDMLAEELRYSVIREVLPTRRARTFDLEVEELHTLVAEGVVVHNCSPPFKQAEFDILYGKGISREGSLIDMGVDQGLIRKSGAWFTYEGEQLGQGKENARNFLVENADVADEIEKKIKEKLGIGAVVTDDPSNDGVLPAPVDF
Arbovirus inh: arbovirus infection inhibition; arbovirus infection cell-based antiviral screen; inhibition, % at 10 µM; 200,000 tested, 0.37% active;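 active = inhibition from about 30%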;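 note: bluetongue infection of BSR cells; cell survival read as ATP light after 72 h; 0% = infected wells without compound and 100% = uninfected wells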
Mtb bLac sens: beta-lactam sensitization of Mtb H37Rv; M. tuberculosis H37Rv growth with meropenem, percent inhibition; hits of this screen are not shown here; inhibition, % at 25 µM; 330,000 tested, 0.27% active; AID 434955;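 active = about 74% or more and at least 40 points above the plate without the antibiotic, then above 30% in a dose series; inconclusive = first-round hits that could not be retested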;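 note: growth measured after seven days incubation then overnight dye step; 0% = bacteria only wells and 100% = bacteria with antibiotic; twin plates without the antibiotic show which effects depend on it; some results filed as inactive read as strong as hits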
Arbovirus inh repeat: also measured in Arbovirus inh; calls as there; inhibition, %; measured here: 10K subset replicate screen; many hits read low in the repeat;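 first of two repeat runs on a subset; 0% = infected and 100% = uninfected wells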
An asterisk follows results filed as active; ? = inconclusive; . = not tested or not shown. Some of the compounds tested (hit frequency here may not be typical).

SMILES	Mtb H37Rv	YopH inh	RecA intein inh	Arbovirus inh	Mtb bLac sens	others
CCCc1nc2cc(Cl)c([N+](=O)[O-])cc2o1	1%	.	0.9	3	-4
O=C(CSc1nccn1-c1cccc(Cl)c1)NO	4%	.	-0.5	-7	3
O=C(N/N=C/c1c(O)ccc2ccccc12)c1ccc(Br)o1	.	.	-8.7	.	12
C/C=C/C(=O)OCC(=O)Nc1ccc(OC)c(Cl)c1	20µM*	-23	0.6	-9	96
O=C(O)COc1ccccc1/C=N/NC(=O)CSc1nnc(SCc2ccccc2)s1	-1%	.	1.6	.	0
NC(=O)c1c[nH]c2ccccc12	8%	.	-1.0	1	0	Arbovirus inh repeat=9
CC(NC(=O)COC(=O)c1ccc2c(c1)OCO2)c1ccccc1 (stereo unspecified)	-7%	.	-0.9	11	-6
O=C(Nc1cccc(C(=O)NC2CCCC2)c1)c1ccccc1	.	.	0.8	.	?
CCSc1nnc(CNc2ccc(C)cc2)n1C	3%	-3	-1.1	-4	-3
Cc1nn(C(=O)c2cccc([N+](=O)[O-])c2)c(C)c1Sc1ccccc1	0%	-19	30	-2	5
CCC/C(=N\NC(=O)c1csc(C)c1C)c1cccs1	3%	6	0.2	-7	4
Cc1cnc(C(=O)OCC(=O)c2ccc(F)cc2)cn1	.	.	0.3	.	-11
CCOC(=O)c1sc(NC(=O)c2noc3c2CCCC3)c(C(=O)OCC)c1C	.	-19	.	1	.	Arbovirus inh repeat=-1
Cc1cc(C)n2nc(SCC(=O)c3c(N)n(CC(C)C)c(=O)n(C)c3=O)nc2n1	3%	.	-2.4	6	0
CC(=O)Oc1ccc(C)cc1N1C(=O)c2ccc(C(=O)O)cc2C1=O	0%	-24	-0.4	-1	15
CCNC(=O)COC(=O)/C=C/c1cccc([N+](=O)[O-])c1	1%	.	-0.6	-4	-2
Cn1c(/N=C/c2cc(Cl)ccc2O)nc2ccccc21	-6%	-30	0.0	-1	-3
CCOC(=O)C1(Cc2ccccc2)CCCN(Cc2ccncc2)C1 (stereo unspecified)	-2%	.	1.8	6	0
Cc1ccccc1NC(=O)/C=C/c1ccc([N+](=O)[O-])s1	1.5µM*	-19	-3.6	-35	100
O=C1CC(C(=O)Nc2ccc(F)cc2)S/C(=N\N=C\c2ccco2)N1 (stereo unspecified)	-1%	5	-0.7	-11	44
Cc1cc(C)nc(SCc2ccc(C(=O)NN=C3C4CC5CC(C4)CC3C5)cc2)n1	3%	-20	2.0	2	-1
C=C(C)COc1ccc(-c2n[nH]c(C)c2-c2ccc(OC)cc2)c(O)c1	7%	11	1.1	-42	0
O=C(CCNS(=O)(=O)c1cccc2nsnc12)NCc1cccs1	-9%	10	2.5	-1	7	Arbovirus inh repeat=-1
O=C(COc1cccnc1[N+](=O)[O-])N1CCN(C(=O)c2ccco2)CC1	3%	.	2.7	16	-9
CCOC(=O)c1[nH]cnc1C(=O)NCc1ccccc1	-12%	.	0.1	.	1
CCOC(=O)CN1CC23C=CC(O2)C(C(=O)NC2CCCC2)C3C1=O (stereo unspecified)	1%	-37	0.2	0	?
COC(=O)CC1(C(=O)OC)Oc2ccc(Br)cc2C(=O)N1c1ccc(Br)cc1Cl (stereo unspecified)	-10%	.	.	.	-12
CCOc1cc(-c2noc(N)c2C(=O)OC)cc(OCC)c1OCC	.	1	-1.1	5	.
COc1ccc(N(CCC#N)S(=O)(=O)c2ccc(Cl)cc2)cc1	2%	3	3.4	8	-12
CCN(C(=O)COC(=O)CNC(=O)c1ccc(C)s1)c1ccccc1	.	.	-4.5	7	2
CCN(C(=O)c1cc2ccccc2oc1=O)c1cccc(C)c1	3%	-6	2.2	-15	-11
COc1ccc(C2=NOC(C(=O)NC(C)C)C2)cc1 (stereo unspecified)	2%	-22	-0.7	9	-13
CCCc1cc(=O)oc2c(C)c(OCC(=O)N3C[C@H]4C[C@@H](C3)c3cccc(=O)n3C4)ccc12	.	.	1.3	.	-3
CCOC(=O)C(=O)CC(=O)c1ccc2c(c1)OCCO2	4%	.	-0.3	0	-1
CCC(NC(=O)Nc1nnc(C(F)(F)F)s1)(C(F)(F)F)C(F)(F)F	?	-23	1.7	-29	100
O=C(COc1ccccc1)NC(=S)Nc1cccc([N+](=O)[O-])c1	1%	-18	1.8	1	3

For reference, two of the compounds above.
SMILES	Mtb H37Rv	YopH inh	RecA intein inh	Arbovirus inh	Mtb bLac sens	others
CCOC(=O)c1[nH]cnc1C(=O)NCc1ccccc1	-12%	.	0.1	.	1
CCOC(=O)CN1CC23C=CC(O2)C(C(=O)NC2CCCC2)C3C1=O (stereo unspecified)	1%	-37	0.2	0	?

Carrying on:
SMILES	Mtb H37Rv	YopH inh	RecA intein inh	Arbovirus inh	Mtb bLac sens	others
Cc1cccc(C)c1NC(=O)COC(=O)c1cc(=O)c2ccccc2o1	-7%	.	-0.5	.	2
CCC(C)NCCCCOc1cc(C)cc(C(C)C)c1 (stereo unspecified)	-2%	4	1.1	-16	0
CC1(C)CC(=O)/C(=C(\O)Cc2ccccc2)C(=NCCCCCC(=O)O)C1	-3%	-8	-3.2	0	-8
CC(=O)c1c[nH]c(C(=O)NCc2ccccc2Cl)c1	.	.	0.9	.	-4
Cc1ccc(C)c(NC(=O)CCN2CCOCC2)c1	-7%	-34	-26	-4	1
CC(=O)Nc1sc(-c2ccccc2)nc1-c1ccccc1	2%	.	-0.3	-1	-8
Cc1ccc(S(=O)(=O)CC2CSc3nc4ccccc4n32)cc1 (stereo unspecified)	-5%	-32	2.3	17	2
C=CCc1cccc2cc(C(=O)N3CCN(C(=O)c4ccco4)CC3)c(=O)oc12	-2%	-17	1.6	3	-3
Cc1cccc(OCC(=O)Nc2ccc3c(c2)C(=O)NC3=O)c1	.	.	-2.7	.	-2
Cc1cc(C)cc(NC(=O)Nc2ccc3c(c2)N(C)C(=O)CS3)c1	2%	-44	-0.5	0	2
Cc1cc(C)cc(NC(=O)C2C3C=CC4(O3)C2C(=O)N(CCN2CCCCC2)C4C(=O)NC2CCCCC2)c1 (stereo unspecified)	.	.	3.8	.	-8
COc1ccc(/C=N/NC(=O)c2ccc(=O)n(C)c2)cc1OC	-6%	.	-2.2	3	2
CCOc1cc(S(=O)(=O)NCCc2cccc(C)c2)c(OCC)cc1-n1cnnn1	1%	-48	.	0	0
O=[N+]([O-])c1c(Nc2cccc(O)c2)cc(Cl)c2nonc12	.	.	-4.7	.	96
COc1cccc(/C=C/C(=O)c2cccc([N+](=O)[O-])c2)c1OC	?	.	0.6	-27	98
CCOC(=O)Cn1nnc2c(sc3nc4c(c(-c5ccc(Cl)cc5)c32)CCC4)c1=O	16%	-18	2.8	-3	94
O=C(COC(=O)c1cnccn1)c1ccc(OC(=O)c2ccccc2)cc1	-15%	-21	1.8	7	21	Arbovirus inh repeat=5
CCC(Sc1nc2c(cnn2-c2ccc(Cl)cc2)c(=O)[nH]1)C(=O)OC (stereo unspecified)	9%	-13	0.5	18	5
O=c1ccc(-c2ccccc2)nn1Cc1ccc(Cl)cc1	.	.	3.2	.	-2
O=[N+]([O-])c1ccc(N/N=C/c2c[nH]c3ccccc23)c(S(=O)(=O)Nc2ccc(Cl)cc2)c1	.	-17	-2.5	-42	-6
CCC(=O)Nc1ccc(NC(=O)c2cccc3c(Br)cccc23)cc1	.	.	-0.7	.	-7
NS(=O)(=O)c1ccc(CNC(=O)/C=C/c2ccc(S(=O)(=O)N3CCOCC3)cc2)cc1	-9%	.	-2.2	.	-13
COc1ccc2cc(C(c3nnnn3CC3CCCO3)N3CCOCC3)c(=O)[nH]c2c1 (stereo unspecified)	-1%	-31	-5.1	0	1
Cc1ccccc1C(=O)NC(=S)NC1CC1	.	.	1.1	.	0
CCOC(=O)C1CCN(C(=O)c2ccc(C)c(S(=O)(=O)N3CCCC3)c2)CC1	.	.	-0.1	.	-5
CC1CN(S(=O)(=O)c2ccc(CN3C(=O)c4cccnc4C3=O)s2)c2ccccc2O1 (stereo unspecified)	.	.	2.9	.	7
O=C(Cc1n[nH]c(=O)[nH]c1=O)N/N=C/c1ccccc1	-2%	-24	-2.5	10	17
C=CCc1ccccc1OCC(O)CN1CCN(CCO)CC1 (stereo unspecified)	.	.	-3.6	.	4
CSc1cccc(NC(=O)/C=C/c2ccco2)c1	1%	.	7.6	1	-7
Cc1cccc(NC(=O)c2ccc(N3CCCCC3)c([N+](=O)[O-])c2)n1	.	0	3.6	-9	16
Cc1cc(C)cc(N(C(=O)CNS(=O)(=O)c2ccccc2)C(C(=O)NCc2ccccc2)c2ccc(C)o2)c1 (stereo unspecified)	13%	-5	-0.9	-11	0
CCOC(=O)Cc1csc(N(C)C)n1	-11%	.	5.5	9	9
Cn1ncc2c(c(SCc3ccc(Cl)cc3Cl)nn2C)c1=O	-4%	.	-4.9	.	-3
O=C(CNC(c1ccccc1)c1ccccc1)Nc1ccc(F)cc1	7%	-29	2.1	10	8
S=C(Nc1ccccc1)Nc1ccccc1-n1cccc1	-13%	.	-1.4	.	.
O=C(Cc1ccccc1)NNC(=O)Cc1ccccc1	0%	.	0.7	5	2

Part of the list above in order of length of the SMILES, rising.
SMILES	Mtb H37Rv	YopH inh	RecA intein inh	Arbovirus inh	Mtb bLac sens	others
CSc1cccc(NC(=O)/C=C/c2ccco2)c1	1%	.	7.6	1	-7
Cn1ncc2c(c(SCc3ccc(Cl)cc3Cl)nn2C)c1=O	-4%	.	-4.9	.	-3
O=C(CNC(c1ccccc1)c1ccccc1)Nc1ccc(F)cc1	7%	-29	2.1	10	8
CCOC(=O)C1CCN(C(=O)c2ccc(C)c(S(=O)(=O)N3CCCC3)c2)CC1	.	.	-0.1	.	-5
Cc1cc(C)cc(N(C(=O)CNS(=O)(=O)c2ccccc2)C(C(=O)NCc2ccccc2)c2ccc(C)o2)c1 (stereo unspecified)	13%	-5	-0.9	-11	0

Additional structures:
SMILES	Mtb H37Rv	YopH inh	RecA intein inh	Arbovirus inh	Mtb bLac sens	others
CCNC(=O)COc1ccc(OCc2ccccc2)cc1	9%	.	1.0	-5	2
CC(=O)Nc1ccc(S(=O)(=O)N(C)CC(=O)N/N=C/c2ccc(C(=O)O)cc2)cc1	.	.	-3.1	.	-1
COc1ccccc1NC(=O)C1CCN(S(=O)(=O)c2ccc3c(c2)NC(=O)CO3)CC1	.	.	-1.7	.	-2
COc1cccc(-n2c(Cc3cc(=O)[nH]c(=O)[nH]3)nnc2SCC(=O)Nc2ccccc2)c1	-3%	-45	.	2	1	Arbovirus inh repeat=0
CC(C)(C)C(=O)Oc1cccc(Nc2ncnc3ccccc23)c1	.	.	1.3	.	1
O=C(Cc1ccc(Cl)c(Cl)c1)NNC(=S)NCC1CCCO1 (stereo unspecified)	.	.	3.8	.	2
Cc1c(Cl)cccc1NC(=O)CCC(=O)N/N=C/c1ccc[nH]1	.	-22	-3.6	1	-5
O=C(NCCN1CCOCC1)c1cnn2c(-c3ccccc3)cc(-c3ccccc3)nc12	8%	2	-5.6	-35	66
CN(C)c1ccc(Nc2nc(N)c([N+](=O)[O-])c(N3CCOCC3)n2)cc1	11%	-3	2.3	-6	59
C[C@@H](CSc1ccccc1)CN1CC[C@H](NC(=O)OCc2ccccc2)CCC1=O	.	.	3.0	.	5
COc1ccc(S(=O)(=O)N2CCOC2CNC(=O)C(=O)NCCc2ccccc2OC)cc1C (stereo unspecified)	.	.	-4.5	.	-8
COc1ccc(-c2noc(CN3CCCCC3c3nccn3C)n2)cc1 (stereo unspecified)	7%	.	.	6	2
O=C(CCNS(=O)(=O)c1ccccc1F)NCc1ccc2c(c1)OCO2	-1%	-8	0.1	-1	-2
O=[N+]([O-])c1ccc(C2C3C(c4ccccc4)=NC4(CCCC4)N32)cc1 (stereo unspecified)	10%	-23	.	1	6
O=C(CN1CCCCC1)Nc1cc(Cl)ccc1Oc1ccccc1	16%	.	18	-3	19
O=C(Cc1ccc(-n2c(=O)c3sccc3n(CC(=O)Nc3ccccc3)c2=O)cc1)NCc1ccco1	-18%	.	0.7	-2	-12
O=C(NCCN1CCOCC1)c1ccc(=O)oc1	-11%	-7	-1.1	9	-5
Cc1csc(NC(=O)CCc2c(C)nc3cc(-c4ccc(Cl)cc4)nn3c2C)n1	.	-14	.	0	6
O=C(CNC1CCCCC1)Nc1cccc(C(F)(F)F)c1	.	.	0.9	.	-1
CCc1ccccc1Oc1ccc(S(=O)(=O)N2CCN(C)CC2)cn1	.	.	-0.4	.	-7
CC(=O)Nc1ccccc1OCC(=O)NC(C)c1ccccc1 (stereo unspecified)	3%	-27	8.7	-3	1
Cc1ccccc1NS(=O)(=O)c1nnc(NC(=O)c2ccccc2C)s1	.	.	-3.2	.	-3
NC(=S)N/N=C/c1ccc([N+](=O)[O-])cc1	37%	.	0.6	-6	.
Cc1cc(C(=O)CSc2nc(N)cc(N)n2)c(C)n1-c1cccc(F)c1	4%	-24	2.7	3	5
CCOc1ccc(Nc2oc(-c3cccs3)nc2C#N)cc1	13%	-1	0.3	-14	-3
